# Bioassay records (PubChem)
# Resorufin fluor – qHTS Assay for Spectroscopic Profiling in Resorufin Spectral Region; Compound fluorescence, resorufin region 547/598 nm, buffer; active compounds read high; max dye-equivalent concentration, M; hit rate 0.04% among 59,000; active = above 10 nM dye equivalent; inconclusive = 1 to 10 nM; inactive = 1 nM or less; a few of its hits are not listed in these tables; further: highest value over a series up to 38 µM
#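 Compounds in 100 mM Tris buffer, pH 8.0, incubated 15 min at room temperature, then read with 547 nm excitation and 598 nm emission filters. Fluorescence was converted to dye-equivalent concentration using an on-plate six-point resorufin standard curve.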
# A647 fluor – qHTS Assay for Spectroscopic Profiling in A647 Spectral Region. Compound fluorescence, A647 channel (570/671 nm), Tris buffer. max dye-equivalent concentration, M. 59,000 tested, under 10 active. AID 592, 2007; active means above 1 µM dye equivalent; inconclusive means 0.1 to 1 µM; inactive means 0.1 µM or less;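 further: values scaled relative to a standard on each plate; highest value over a series up to 38 µM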
#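 Fluorescence read (570 nm ex, 671 nm em) after 15 min RT incubation of compounds in 100 mM Tris buffer, pH 8.0; values expressed as dye-equivalent concentration against a six-point A647 standard series on each plate.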
# TSHR ag – qHTS Assay for Agonists of the Thyroid Stimulating Hormone Receptor; Potency, µM (highest dose often 57.1 µM), inactives show at the top dose activation, hits mostly activators; Thyrotropin receptor (Homo sapiens), P16473; hit rate 0.48% among 73,000; HEK293-CNG-TSHR cells (CNG channel as cAMP sensor), membrane potential dye, cAMP; AID 926, 2007; active = well fitted activation curve of enough size with the parental cells flat; inconclusive = any curve in the parental cells; inactive = parental cells flat and receptor cells flat or falling; further: potency means the concentration at half of the fitted maximal effect; % of control where 0% means no effect; weak receptor curves with flat parental cells got no call and are not listed
# Target sequence (P16473 whole entry, looked up): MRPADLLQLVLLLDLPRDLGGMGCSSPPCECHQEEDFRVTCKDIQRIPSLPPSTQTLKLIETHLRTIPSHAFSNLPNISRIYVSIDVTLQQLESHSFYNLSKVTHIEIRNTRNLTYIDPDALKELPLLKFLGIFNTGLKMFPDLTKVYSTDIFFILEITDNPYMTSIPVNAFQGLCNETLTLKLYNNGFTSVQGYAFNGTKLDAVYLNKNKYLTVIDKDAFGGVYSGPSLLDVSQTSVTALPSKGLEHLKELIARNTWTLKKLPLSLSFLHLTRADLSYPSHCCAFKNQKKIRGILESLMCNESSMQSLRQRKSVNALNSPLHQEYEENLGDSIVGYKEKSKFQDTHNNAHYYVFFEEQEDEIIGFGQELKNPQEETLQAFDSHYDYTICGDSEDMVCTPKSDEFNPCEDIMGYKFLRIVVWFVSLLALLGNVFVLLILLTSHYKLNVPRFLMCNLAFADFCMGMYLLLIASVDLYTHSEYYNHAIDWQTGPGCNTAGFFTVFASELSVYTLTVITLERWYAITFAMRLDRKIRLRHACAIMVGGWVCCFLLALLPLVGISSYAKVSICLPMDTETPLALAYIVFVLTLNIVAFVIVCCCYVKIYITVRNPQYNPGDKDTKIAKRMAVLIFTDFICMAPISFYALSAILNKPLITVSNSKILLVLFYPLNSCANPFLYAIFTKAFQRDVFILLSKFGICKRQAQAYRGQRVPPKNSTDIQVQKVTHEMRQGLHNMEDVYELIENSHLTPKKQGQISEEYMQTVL
#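 cAMP rise detected as CNG-channel membrane depolarization by fluorescent dye (emission 590 nm), 30 min after compound, following 60 min dye loading containing 100 uM RO 20-1724 at room temperature. Cells: TSHR/CNG HEK 293, with parental CNG HEK 293 as control.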
# A488 autofl – qHTS Assay for Spectroscopic Profiling in A488 Spectral Region | max dye equivalency, M | AID 591, 2007 | compound autofluorescence, A488 spectral region, dye equivalency; active compounds read high | hit rate 0.1% among 59,000; active = above 10 nM dye equivalent; inconclusive = 1 to 10 nM; inactive = 1 nM or less; about half of its hits are not listed in these tables;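 further: highest value over a series up to 38 µM; compound alone in buffer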
#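 Compound autofluorescence was read in 100 mM Tris pH 8.0 after 15 min at room temperature, ex 480 nm/em 540 nm. Intensities were converted to A488 dye-equivalent concentration using an on-plate six-point A488 standard curve.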
# AID923 – qHTS Assay for Allosteric/Competitive Inhibitors of Caspase-1: Spectroscopic Profiling in AFC Spectral Region | compound fluorescence, AFC spectral region (405/520 nm); almost no hit is shown here | Potency, µM (series often up to 57.5 µM), for inactives: at the top dose fluorescence increase, usual class: activators | hit rate 1.1% among 75,000 | AID 923, 2007; active means well fitted activation curve with a large enough effect; inconclusive means small, poorly fitted or top-dose-only effect;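 further: potency means the concentration at half of the fitted maximal effect; 0% is about no effect; scaled to a free AFC standard on each plate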
#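 Baseline compound fluorescence (AFC region, 405 nm ex/520 nm em) taken from the intercept of kinetic reads with 50 nM caspase-1 and 5 uM Ac-WEHD-AFC; normalized to an on-plate AFC standard curve; compounds titrated up to 57 uM.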
# * marks the source's active call; other numbers are inactive results; i = inactive; ? = inconclusive; / = not tested or not shown; [ ] = remark or other dose. This is a subset, so the mix of outcomes need not match the whole.
# Values run as follows: Resorufin fluor | A647 fluor | TSHR ag | A488 autofl | AID923
CC1CCCC(C)N1CCNC(=O)Cn1nc(-c2ccccc2)ccc1=O (configuration not stated)
    i | 4e-08 | 2%[11.4 µM] | i | 0.7%
COc1cccc(C(CC(=O)NCC2CCCO2)NS(=O)(=O)c2ccc(C)cc2)c1OC (configuration not stated)
    i | 4.1e-09 | 2% | i | -1.6%
CCn1nnnc1-c1ccc(OC)c(S(=O)(=O)N2CCCCC2)c1
    i | 2.3e-08 | 11% | i | 2.3%
CCOC(=O)c1c(-c2ccccc2)c(C(C)=O)c(=O)n(C)c1C
    / | / | ? | / | 1.4%
CCN(CC)C(=O)CN(C#N)c1nc(OC)nc(N(C)C)n1
    i | 2.8e-09 | 1% | i | -0.6%
Cc1ccc(-c2cc(C(=O)NCC3CCCO3)no2)cc1 (configuration not stated)
    i | 2.2e-09 | -3% | i | -0.5%
O=C1c2ccccc2C(=O)N1Cc1nc2ccccc2c(=O)n1CCN1CCOCC1
    i | 2.5e-09 | 4% | i | -0.7%
Cc1cc(C)nc(SC2=CS(=O)(=O)c3ccccc32)n1
    i | 1e-09 | 6% | i | -1.4%
COC(=O)C1=C(C)NC2=C(C(=O)CCC2)C1c1coc2ccccc2c1=O (configuration not stated)
    / | / | -8% | / | 7.4%
Cc1cccc2cc(COC(=O)c3ccco3)c(=O)[nH]c12
    i | 4.1e-09 | 3% | i | -2.4%
COc1ccc(Cl)cc1S(=O)(=O)N1CCN(C(=O)c2ccco2)CC1
    i | 1e-09 | -1% | i | 3.1%
COc1ccc(Cn2nnnc2C(c2ccccc2Cl)N2CCN(C)CC2)cc1 (configuration not stated)
    i | 2.1e-08 | ? | i | 0.0%
O=C(Nc1cccc(F)c1)N1CCC2(CC1)CCN(C(=O)c1ccncc1)CC2
    i | 5e-09 | 8% | i | -0.2%
Nc1cc(C(=O)OCC(=O)NCc2ccco2)ccc1Cl
    i | 5e-09 | -3% | i | -1.8%
CCCOc1ccc(N2CC(C(=O)Nc3ccccc3C(=O)NCc3ccco3)CC2=O)cc1 (configuration not stated)
    i | 9.4e-09 | -2% | i | -2.7%
CCOC(=O)C1CCCN(S(=O)(=O)c2ccc(Br)c(OC)c2)C1 (configuration not stated)
    i | 2.7e-09 | 16% | i | -2.2%
CCN(Cc1cc2ccc(C)cc2[nH]c1=O)C(=O)c1ccncc1
    i | 1e-09 | -1% | i | 0.7%
c1cc(CSSCc2ccncc2)ccn1
    i | 1e-09 | 17%[11.4 µM] | i | 5.5%[11.5 µM]
Cc1ccc(S(=O)(=O)NC(CN2CCOCC2)=NCCNS(=O)(=O)c2ccccc2)cc1
    i | 1e-09 | -3% | i | 0.6%
CS(=O)(=O)NCCCc1ccccc1
    / | / | 2% | / | 0.3%
COCCNC(=O)CN1CCN(C(c2ccccc2)c2ccccc2)CC1
    i | 1.2e-09 | 4% | i | 8.3%
CCCc1cn(S(=O)(=O)c2ccc(OC)cc2OC)nc1N
    i | 2.9e-08 | 0% | i | 0.2%
O=C(NCc1ccc2c(c1)OCO2)c1ccc2c(=O)n(C3CCCC3)c(=O)[nH]c2c1
    i | 6.4e-09 | 18% | i | 0.4%
c1ccc2c[n+](CCCC[n+]3ccc4ccccc4c3)ccc2c1
    i | 4e-09 | -1%[11.4 µM] | i | -0.1%[11.5 µM]
COc1ccc(C)cc1-n1nnnc1SCC(=O)NC(=O)NCc1ccco1
    i | 2.5e-08 | 1% | i | 1.2%
COc1ccc(C(C)=O)cc1COC(=O)c1cc(C)oc1C
    i | 1e-09 | ? | i | 3.6%
O=C(CSc1nc(-c2ccccc2)nc2c1CCCC2)N1CCOCC1
    i | 3e-08 | 13µM* | i | 1.8%
COc1ccccc1N(CN1CCCC1=O)C(=O)COc1ccccc1
    i | 4.6e-09 | 8% | i | -2.5%
Cc1ccc(CNc2nc3c([nH]2)c(=O)n(C)c(=O)n3C)cc1
    i | 1.6e-08 | 7% | i | -2.5%
CC(=O)N1CCC2(CCCN(C(c3ccccc3)c3ccccc3)C2)CC1
    i | 3.3e-08 | ? | i | 0.3%
O=C(CCCCCNc1nc(=S)[nH]c2ccccc12)N1CCN(c2ccccn2)CC1
    i | 1.9e-08 | 2% | i | -1.0%
CCOC(=O)N1CCN(c2c(NCCCOC(C)C)c(=O)c2=O)CC1
    / | / | 1% | / | -0.4%
COc1cccc(OC)c1OCCNCCO
    / | / | ? | / | -0.6%
Cc1ccc(C)c(NC(=O)C2CC(O)CN2C(=O)OCc2ccccc2)c1 (configuration not stated)
    / | / | 2%[11.4 µM] | / | 1.7%
COC(=O)Nc1sccc1C(=O)Nc1sccc1C(=O)OC
    i | 1e-09 | 11% | i | 0.5%
CC(C)n1c(-c2cccnc2)nc2cnccc21
    i | 1e-09 | 0% | i | -1.5%
Clc1ccc(-c2nnc(-c3ccccc3)o2)c(Cl)c1
    i | 3.6e-09 | ? | i | 0.3%
O=C(NCC(=O)N1CCC(N2CCCCC2)CC1)C1CCCCC1
    i | 3.7e-08 | -3% | i | -0.2%
O=C(c1cccc2c1C(=O)N(Cc1cccnc1)C2)N1CCN(c2ccccc2)CC1
    i | 6e-09 | -12% | i | 0.2%
O=S(=O)(NCCCCCNS(=O)(=O)c1ccc(F)cc1)c1ccc(F)cc1
    i | 3.5e-08 | -11% | i | 0.8%
CCOc1ccc(NS(=O)(=O)c2ccc(OCC(=O)NCCCOC)cc2)cc1
    i | 2.2e-09 | 0% | i | -2.6%
O=C(CN1CCSCC1)N1CCc2[nH]c3ccc(Br)cc3c2C1
    i | 2.9e-09 | -14% | i | 3.0%
Cn1c(N2CCCC2)nc2c1c(=O)n(Cc1cccc(F)c1)c(=O)n2C
    i | 4.6e-09 | -3% | i | 0.1%
C=CCNc1nc2c(c(=O)n(C)c(=O)n2C)n1CC
    / | / | -18% | / | 3.1%
COc1ccc(-c2nnc(SCC(=O)NC3CCCCC3)o2)cc1OC
    / | / | ? | / | -2.1%
COCCOC(=O)C1=C(C)N=C2SCCC(=O)N2C1c1cccc(Br)c1 (configuration not stated)
    i | 1e-09 | 5% | i | 0.2%
N#CC1=C(N)SC(N)=C(C#N)C1c1c(Cl)cccc1Cl
    i | 8e-09 | -8% | i | 14%
Cc1oc2c(CN3CCOCC3)c(O)ccc2c(=O)c1-c1ccc(Br)cc1
    i | 1e-09 | -3% | i | 1.4%
Cc1nn(-c2ccccc2)c(OC(=O)c2cccs2)c1S(=O)(=O)c1ccccc1
    i | 1.6e-08 | / | i | 1.1%
O=C(c1ccco1)N1c2ccccc2Sc2ccccc21
    i | 1.1e-08 | ? | i | 0.9%
COc1ccc(S(=O)(=O)N(C)CC(=O)Nc2ccccc2SC)cc1
    i | 5.8e-09 | 2% | i | -0.3%
CN(C(=O)CSc1nnc(-c2ccco2)o1)C1CCCCC1
    i | 8.5e-09 | -1% | i | -1.2%
O=C(CSc1nnc(-c2ccccc2)o1)c1ccc2c(c1)OCCO2
    i | 1e-09 | ? | i | 0.9%
CCN1C(=O)/C(=C2\SC(=S)N(CC3CCCO3)C2=O)c2ccccc21 (configuration not stated)
    / | / | 3% | / | -1.2%
COc1ccccc1CNc1ncnc2ccc(-c3ccc(N(C)C)cc3)cc12
    i | 1.9e-08 | ? | i | 9.4%
Cc1noc(C)c1S(=O)(=O)Nc1ccc(C(=O)NC2CCCCC2)cc1
    i | 1e-09 | 0% | i | 1.8%
CC(C)C(=O)N[C@@H]1CCCN1C(=O)/C=C\c1ccccc1
    / | / | -5%[11.4 µM] | / | -1.0%[11.5 µM]
CC[N+](C)(CC)CC(=O)Nc1c(C)cccc1C
    / | / | -4% | / | -1.2%
CC(C)Nc1nc(NC(C)C)nc(N(C)C#N)n1
    i | 3.7e-09 | 6% | i | 1.4%
Clc1ccccc1COc1ccccc1-c1nnco1
    i | 5e-09 | ? | i | -3.0%

# (listing goes on)
# Values run as follows: Resorufin fluor | A647 fluor | TSHR ag | A488 autofl | AID923
COc1cccc(N2CC(O)Cn3c2nc2c3c(=O)n(CCCc3ccccc3)c(=O)n2C)c1 (configuration not stated)
    i | 3.3e-08 | -15% | i | 0.0%
CCOC(=O)CN1CC23C=CC(O2)C(C(=O)Nc2ccc4c(c2)OCO4)C3C1=O (configuration not stated)
    / | / | 4% | / | 4.5%
COc1cccc2cc(C(=O)C3=C(O)C(=O)N(CCN(C)C)C3c3ccc(F)cc3)oc12 (configuration not stated)
    i | 1e-09 | -4% | i | 0.5%
CC(C)(CO)NC(=O)CCCOc1ccc(Cl)cc1Cl
    / | / | 0% | / | 1.8%
CCC(=O)Nc1ccc(-c2nnc(SCC(=O)NCC3CCCO3)n2C)cc1 (configuration not stated)
    i | 4e-09 | / | i | /
N#Cc1c(SCC(N)=O)nsc1SCc1ccccc1Cl
    i | 1e-09 | / | i | -2.7%
C=CCn1c(SCC(=O)N2CCOCC2)nc2sc3c(c2c1=O)CCCC3
    i | 1.7e-08 | / | i | -1.5%
N=C(N)SCCc1ccncc1
    i | 8.5e-09 | 8%[11.4 µM] | i | -1.0%[11.5 µM]
Cc1ccc(OCc2nc(C#N)c(NCc3ccco3)o2)cc1
    i | 1e-09 | 8% | i | -0.2%
COc1cccc(C2N(c3ccc(Cl)cc3)C(=O)C3CCCN32)c1 (configuration not stated)
    / | / | 5% | / | -2.7%
COC(=O)C1=C(N)OC2=C(C(=O)CCC2)C1c1cccs1 (configuration not stated)
    i | 1e-09 | ? | i | 0.8%
O=C(c1ccco1)N1CCC2(CC1)CN(c1ccc(-c3ccccc3)cc1)C2
    i | 2.7e-09 | 11% | i | 0.7%
Cn1c2c(c(=O)n(C)c1=O)C(CC(=O)Nc1ccccc1)C(=O)N2 (configuration not stated)
    i | 2.2e-09 | 4% | i | -1.3%
COc1nc(-c2ccccc2)ccc1-c1noc(-c2ccc(F)cc2)n1
    i | 1e-09 | 0% | i | -1.2%
O=C(c1cccc(C(F)(F)F)c1)N1CCCC1
    i | 5.1e-09 | -2% | i | -2.3%
O=C(NC1=NCCS1)c1ccc(OCC2CCCO2)cc1 (configuration not stated)
    i | 1.1e-08 | 12% | i | -0.2%
O=C1C(c2ccc(F)cc2)N(Cc2ccc3c(c2)OCO3)C(=O)CN1C1CCCC1 (configuration not stated)
    i | 4.1e-09 | / | i | -2.0%
COc1cc(OC)nc(NC2OC(=O)c3ccccc32)n1 (configuration not stated)
    i | 1e-09 | -3% | i | 0.2%
COc1ccc(OCCCC(=O)N2CCCc3ccccc32)cc1
    i | 2.6e-08 | ? | i | 1.0%
Cc1nc(N2CCN(S(=O)(=O)c3cccc4nonc34)CC2)c2c3c(sc2n1)CCCC3
    i | 6.4e-09 | -11% | i | 0.0%

# 2 entries from above, with each value named.
Cn1c(N2CCCC2)nc2c1c(=O)n(Cc1cccc(F)c1)c(=O)n2C
  Resorufin fluor = i	A647 fluor = 4.6e-09	TSHR ag = -3%	A488 autofl = i	AID923 = 0.1%

COC(=O)Nc1sccc1C(=O)Nc1sccc1C(=O)OC
  Resorufin fluor = i	A647 fluor = 1e-09	TSHR ag = 11%	A488 autofl = i	AID923 = 0.5%

# (listing goes on)
# Values run as follows: Resorufin fluor | A647 fluor | TSHR ag | A488 autofl | AID923
COc1ccc(N2CCN(c3ccc(NC(=O)c4ccc5c(c4)OCO5)cc3C#N)CC2)cc1
    i | 1e-09 | -6%[11.4 µM] | i | -1.6%
Cc1onc(-c2ccccc2Cl)c1C(=O)N(C)C1CCCCC1
    / | / | 33% | / | -2.4%
CCOC(=O)OCC1OC(C#Cc2ccc(F)cc2F)C=CC1OC(=O)OCC (configuration not stated)
    / | / | 2%[11.4 µM] | / | -1.3%[11.5 µM]
CCCc1nc2scc(-c3ccccc3)c2c(=O)n1N
    i | 3.9e-09 | -5% | i | -0.6%
